Source: PubChem (National Center for Advancing Translational Sciences (NCATS))
TRPML1 inh – blocks the human TRPML1 channel | activity change, negative = inhibition, % (test concentration not listed) | AID 624415 | TRPML1-inducible cells, Ca2+ dye fluorescence, FDSS; active compounds read low; inhibition of EC80 agonist-evoked calcium signal | hit rate 0.02% among 390,000 | Q9GZU1; in the data active means activity change below about -50%; inconclusive means about -30% to -50%; inactive means above about -30%;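 note: stimulus is agonist 54-4 at its EC80 concentration; % is set by controls: 0 for no effect and ±100 for the full control effect; compound concentration not given in the record; the text of the record puts the active cut at -80%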
Target sequence (Q9GZU1 whole entry, looked up): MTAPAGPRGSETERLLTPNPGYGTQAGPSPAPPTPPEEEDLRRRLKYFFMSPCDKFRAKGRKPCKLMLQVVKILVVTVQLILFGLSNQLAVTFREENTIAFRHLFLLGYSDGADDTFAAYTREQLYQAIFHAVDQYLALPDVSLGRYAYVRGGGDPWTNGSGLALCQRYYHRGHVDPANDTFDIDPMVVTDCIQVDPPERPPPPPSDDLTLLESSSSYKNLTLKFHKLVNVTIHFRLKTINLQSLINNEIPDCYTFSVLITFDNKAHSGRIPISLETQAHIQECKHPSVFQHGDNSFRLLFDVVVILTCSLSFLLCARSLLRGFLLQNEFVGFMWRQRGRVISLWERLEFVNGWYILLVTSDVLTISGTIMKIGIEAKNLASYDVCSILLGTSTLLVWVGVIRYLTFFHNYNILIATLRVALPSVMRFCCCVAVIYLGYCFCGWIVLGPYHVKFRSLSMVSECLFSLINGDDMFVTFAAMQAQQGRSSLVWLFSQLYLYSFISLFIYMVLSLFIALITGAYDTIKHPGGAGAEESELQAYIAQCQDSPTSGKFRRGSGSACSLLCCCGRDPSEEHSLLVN
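TRPML1-DL cells, Tet-induced overnight (~16 h, 37 °C) at 1,500 cells/well, were loaded with Ca8 no-wash dye plus quencher for 45-90 min at room temperature. Compounds were pinned during FDSS kinetic reading; agonist 54-4 at EC80 (4 uM final) then added.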
Menin MLL FP FL – menin-MLL binding inhibition, fluorescein peptide | Fluorescence polarization, fluorescein-MLL peptide displacement from menin | FP activity change, % at 61.4 µM | 290,000 tested, under 10 active | AID 1766; inconclusive = falling polarisation curve, or a change in total fluorescence; inactive = total fluorescence flat and polarisation flat or rising; no compound was filed as active; the % refers to the polarisation; negative = inhibition;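 note: % of control where 0% means no effect; inhibitors lower the polarisation; unlabelled MLL peptide was the positive control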
ClpP mod – qHTS Assay for Activators of ClpP; ATP-dependent Clp protease proteolytic subunit (Bacillus subtilis (strain 168)), P80244; purified B. subtilis ClpP, FRET peptide cleavage, 20 min; Potency, µM (highest dose often 57.5 µM), for the others: top-dose activity change, negative = active; hit rate 1.9% among 340,000; AID 651965, 2013; active = well fitted falling curve with a large enough effect; inconclusive = small, poorly fitted or top-dose-only effect; inactive = no such curve, though single readings can be large or run the other way; note: potency is the fitted concentration of half-maximal effect; the source files actives as falling curves though it sought activators and does not explain the sign; nearly all actives have a fitted effect of over 65% in size; many hits overshoot -100%
Target sequence (P80244 whole entry, looked up): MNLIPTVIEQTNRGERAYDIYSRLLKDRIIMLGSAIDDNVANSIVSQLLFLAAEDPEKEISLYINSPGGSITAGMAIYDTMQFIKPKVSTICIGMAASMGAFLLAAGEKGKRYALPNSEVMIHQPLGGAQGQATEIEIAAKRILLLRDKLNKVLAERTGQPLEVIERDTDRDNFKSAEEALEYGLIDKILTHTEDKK
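Buffer: 100 mM Tris/HCl pH8, 100 mM KCl, 0.05% low protease BSA, 2.5% glycerol, 0.01% Tween-20. ClpP 10 microg/mL final; 20 min RT; delta FRET normalized to ADEP and DMSO controls.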
TRPV1 potentiator – potentiators of human vanilloid receptor 1 (TRPV1) | TRPV1-expressing cells, Fluo-8 calcium influx, capsaicin EC20 potentiation; host cell line not named in the record; control for the full effect not named in the record | potentiation, % at 8.33 µM | hit rate 0.02% among 320,000 | AID 540277; active means potentiation above 80%; inconclusive means 30% to 80%; inactive means below 30%; note: 0% is about no effect
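Fluo-8 calcium influx in TRPV1-expressing cells, kinetic read (ex 480/em 520 nm). Compound added and read 3 min for agonist activity, followed by capsaicin at EC20 final and 2 min further read for enhancement.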
gsp ag – gsp mutant agonism; gsp mutant cells, cAMP HTRF, 30 min; control for the full effect not named in the record; Potency, µM (series often up to 76.9 µM), without a hit: top-dose activation (cAMP increase), most hits filed as activators; hit rate 0.13% among 340,000; AID 624287; active = well fitted activation curve with a large enough effect; inconclusive = small, poorly fitted or top-dose-only effect, or another doubt; inactive = no such curve, though single readings can be large or run the other way; cell line not stated here;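 note: phosphodiesterase inhibitor Ro 20-1724 added with compounds to block cAMP breakdown; potency is the fitted concentration of half-maximal effect; nearly all actives have a fitted effect of over 60% in size; about a fifth of the inactives were tested at one dose only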
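Cells stably selected in G418 were plated at 2000/well, grown 16-24 hr, then given compounds in DMSO with the PDE inhibitor […] (300 uM solution added) for 30 min at 37C; cAMP was read by HTRF.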
gsp antag – gsp mutant antagonism; gsp-mutant cells, cAMP HTRF, 30 min; control for the full effect not named in the record; hit rate 0.4% among 340,000; AID 624288; Potency, µM (titrated, usually from 76.9 µM), inactives show at the top dose activity change, negative = inhibition, usual class: inhibitors; active = falling curve of any shape with a large fitted effect; inconclusive = falling curve, mostly with a smaller effect; inactive = flat or rising curve; cell line not stated here;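 note: intracellular cAMP measured with PDE inhibitor Ro 20-1724 present during compound exposure; potency is the fitted concentration of half-maximal effect; % is set by controls: 0 for no effect and ±100 for the full control effect; nearly all actives have a fitted effect of over 65% in size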
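HTRF cAMP measurement after 30 min RT detection following 30 min, 37C compound treatment alongside […] (added as 300 uM solution) in G418-selected cells seeded at 2000/well and grown 16–24 h.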
Sfp inh – inhibitors of Bacillus subtilis Sfp phosphopantetheinyl transferase; hit rate 3.5% among 310,000; Potency, µM, for inactives: max response, negative = inhibition, most hits filed as inhibitors; AID 1490; Biochemical Sfp PPTase activity, qHTS; active = well fitted inhibition curve with a large enough effect; inconclusive = small, poorly fitted or top-dose-only effect, or another doubt; inactive = no such curve, though single readings can be large or run the other way;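 note: the enzyme is Sfp with the accession as filed and its product quenches rhodamine fluorescence; potency is the fitted concentration of half-maximal effect; 0% = enzyme reaction without inhibitor and -100% = no enzyme wells; top concentration of the series not given in the record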
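Sfp 15 nM + cpd, 15 min RT; start w/ rhodamine-CoA 5 uM, BHQ-2-YbbR 12.5 uM (final); 50 mM Hepes pH 7.6, 10 mM MgCl2, 0.01% NP-40, 0.01% BSA; read 525/598 nm at 0 and 30 min.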
* hit, by the source's call; ? = inconclusive; . = not tested or not shown; & = joins results of further samples; [ ] = remark or other dose.

SMILES	TRPML1 inh	Menin MLL FP FL	ClpP mod	TRPV1 potentiator	gsp ag	gsp antag	Sfp inh
CCOc1cccc(C(=O)NC(=S)Nc2cccnc2)c1	31	5.1	9.8%	6	-14%	12%	45µM*
Cc1ccc(NC(=O)CN2C(=O)S/C(=C\c3cccn3-c3cccc(C(=O)O)c3)C2=O)c(C)c1	-10	12	-5.3%	1	9%	?	50µM*
C=CCn1c(=S)[nH]c2nc3c(cc2c1=O)COC(C)(C)C3	-9	1.1	-20%	-8	-2%	3%	-8%
Cc1ccc(NC(=O)C2(c3cccs3)CCOCC2)cc1C	-19	1.6	1.9%	1	15%[15.4 µM]	-1%	-2%
COc1ccccc1NC(=O)c1cc(Cl)nc2ccccc12	-9	2.1	.	.	0%[15.4 µM]	-11%	5%
Cn1nnnc1SCSc1nnnn1C	-11	2.0	-4.7%	-6	17%	0%	28%
CC1CN(C(=O)/C=C/c2ccccc2[N+](=O)[O-])CC(C)O1 (stereo not given)	-6	3.0	.	-1	-3%[15.4 µM]	-3%	24%
CN(Cc1cccc(F)c1)C(=O)CN1CCN(S(=O)(=O)c2ccc3c(c2)OCCCO3)CC1	34	.	-2.0%	-13	?	-12%	.
O=C(COC(=O)CCN=C1NS(=O)(=O)c2ccccc21)NNC(=O)c1ccc(Cl)cc1	11	.	-2.5%	2	?	9%	.
C[C@@H]1CC[C@@]2(O[C@H](CCO)C[C@@H](O)[C@@H]2O)O1	-7	-3.0	-0.1%	7	-30%	10%	22%
COCCNC(=O)/C(C#N)=C/c1c(F)cccc1Cl	-13	-2.0	.	1	19%[15.4 µM]	-8%	16%
CN1c2ccccc2-c2nc3ccccc3n2C1c1cccs1 (stereo not given)	0	.	-21%	-9	-1%[15.4 µM]	-24%	-8%
CC1CC(NC(=O)c2c(O)nc3ccccn3c2=O)CC(C)(C)C1 (stereo not given)	-18	.	2.0%	.	-33%[inhibitor]	1%	.
O=C(CNS(=O)(=O)c1ccc(F)c(Cl)c1)N1CCCCCC1	7	2.9	-0.8%	-8	25%[15.4 µM]	-3%	-20%
COc1ccc(CCNC(=O)CC(c2ccccc2)c2cccc(C)c2O)cc1OC (stereo not given)	-2	-0.5	.	-14	-6%[15.4 µM]	?	10%
O=C(NC1CCCC1)c1cc2c(=O)n3ccccc3nc2s1	-1	.	4.6%	-7	?	12%	.
Cc1cccc(NC(=S)N(CCCN2CCOCC2)C(C)c2cc3ccccc3o2)c1 (stereo not given)	46	2.2	-0.1%	5	-4%	-27%	13%
COc1ccccc1OCC(=O)N(Cc1nc(-c2ccccc2)no1)C(C)C	-2	0.2	.	4	-115%[inhibitor]	-5%	4%
O=C1CC(c2ccncc2)c2cc3c(cc2N1)OCO3 (stereo not given)	12	3.1	0.9%	5	-24%	12%	9%
Cc1[nH]c(C)c(S(=O)(=O)NCCc2ccccc2)c1C(=O)N1CCCCC1	-12	.	-0.1%	6	24%	15%	0%
CC1Sc2ccc(S(=O)(=O)CCC(=O)NCc3ccccc3Cl)cc2NC1=O (stereo not given)	0	-0.9	-1.0%	-1	3%	-1%	20%
O=C(COC(=O)C1(c2ccccc2F)CCCC1)N1CCc2ccccc21	56	4.6	3.0%	-1	-16%	7%	16%
Cc1c(Cl)cccc1Nc1ccccc1C(=O)O	-7	-3.4	-0.6%	6	.	-7%	5%&23%&15%
CCOC(=O)C1/C(=N\O)CC(C)(O)C(C(=O)OCC)C1c1ccc(N(C)C)cc1 (stereo not given)	10	-10.0	-1.7%	-17	28%	-3%	50µM*
COc1ccc(N)cc1NC(=O)CN1CCOCC1	-9	.	0.6%	.	7%	.	.
CCOC(=O)CSc1nnc(CNc2ccccc2Cl)n1-c1ccccc1	1	-0.2	-0.1%	-7	-34%[inhibitor]	?	-2%
COc1ccc(NC(=O)CN2C(=O)NC(C)(C3CCCCC3)C2=O)c(OC)c1 (stereo not given)	-4	.	2.5%	-2	-57%[inhibitor]	5%	.
CN1CCN(/N=C/c2ccc(-c3ccccc3)cc2)CC1	-5	-0.5	.	-1	-12%	12%	-14%
COc1cccc(CNC(=O)c2ccc3nc[nH]c3c2)c1	2	-2.5	-3.5%	14	0%	6%	12%
O=C(N/N=C/c1ccco1)c1ccc(NC(=O)C2CCCCC2)cc1	-2	.	-3.3%	9	21%	-4%	-8%
CCOC(=O)c1ccc[n+](CC(=O)c2ccccc2)c1	-9	-2.8	-1.3%	-3	13%	-12%	5%
CCc1nc2c(=O)[nH]cnc2o1	13	.	-0.9%	.	0%	.	.
O=C(NC1CCCCC1)C(c1ccncc1)N(Cc1ccccc1)C(=O)c1ccc(-c2ccccc2)[nH]1 (stereo not given)	12	3.9	?	15	7%	-1%	-2%
O=C(Nc1ccc(Br)cc1)N1CCCC(O)C1 (stereo not given)	24	4.0	.	-8	10%[15.4 µM]	4%	4%
O=C(COC(=O)c1ccc([N+](=O)[O-])o1)NCc1ccc(F)cc1	-5	.	-0.6%	.	-48%	6%	.
c1cncc(CNc2nc(N3CCOCC3)nc(N3CCOCC3)n2)c1	6	4.8	1.4%	-10	8%	-5%	15%
CCOC(=O)c1ccc(CNC(=O)Cn2nnc(-c3ccccc3F)n2)o1	24	-1.0	3.4%	-5	6%[15.4 µM]	5%	26%
OC(COc1ccc(Br)cc1)CN1CCOCC1 (stereo not given)	-1	0.7	4.1%	2	-34%[inhibitor]	6%	7%
CN(CC(=O)Nc1cccc(F)c1)C(=O)c1ccc(C(=O)c2ccccc2)cc1	3	.	-3.6%	-23	2%	-27%	.
CSCC[C@@H](Nc1nc(-c2ccccc2)nc2c1oc1ccccc12)C(=O)O	-1	3.9	-0.9%	11	1%	-27%	13%
O=C1NCCCC1(c1ccccc1)c1ccccc1	6	.	1.5%	.	17%	.	.
CCn1c(SCC(=O)Nc2cccnc2Cl)nnc1-c1ccccc1	-18	7.2	2.2%	1	7%	18%	15%
O=S(=O)(Nc1cccnc1)c1ccccc1	-11&-4	-6.3	.	9&-2	-2%[15.4 µM]	11%	12%
CCOC(=O)C1CCCN(S(=O)(=O)c2ccc(-c3cc(C)no3)s2)C1 (stereo not given)	25	.	0.1%	-39	?	-6%	0%
S=c1[nH]nc(-c2cc(-c3ccco3)[nH]n2)n1-c1cccc2ccccc12	-8	?	-0.3%	-16	3%	-16%	10µM*
CSc1ccc(/C=N/NC(=O)c2ccc(C)c(C)c2)cc1	-14	-1.9	?	-2	22%	-7%	-21%
CCOC(=O)C1CCN(c2ncnc3c2nnn3Cc2ccccc2Cl)CC1	22	4.5	.	-6	3%[15.4 µM]	-41%	7%
CCOc1ccc2oc(C(=O)N(Cc3nnc(-c4ccccc4Cl)o3)C3CC3)c(C)c2c1	15	.	?	8	20%	-6%	.
COc1ccc(N2CCN(C(=O)Nc3cccc(C(F)(F)F)c3)CC2)cc1	29&21	1.1	-16%&-6.5%	-1	-1%	-8%	7%
Cc1ccc(NC(=O)COc2ccccc2C(=O)NCCc2ccccc2)cc1	7	4.1	-1.4%	-2	-25%	?	7%
Nc1sc(-c2ccccc2)n[n+]1Cc1cccc2cccnc12	-4	1.8	-4.1%	-5	-9%	1%	-4%
COc1cccc(/C=C/C(=O)OCC(=O)N2CCCC2)c1OC	-2	.	-1.6%	.	4%	-9%	.
CN1CCN(CC(=O)Nc2ccc(S(=O)(=O)N(C)C)cc2)CC1	-1	.	-2.4%	-9	-12%[15.4 µM]	14%	56µM*
CCOc1ccccc1N1CCN(C(=O)c2ccccc2)CC1	5	-4.9	0.2%	3	-14%	-6%	-2%
CCOC(=O)c1ccc(NCCOC)c([N+](=O)[O-])c1	5	-2.2	0.2%	-5	0%[15.4 µM]	16%	4%
Cc1cc([N+](=O)[O-])c(N2CCC[C@@H]2C(=O)O)c([N+](=O)[O-])c1	-8	0.0	0.1%	4	?	4%	1%
CC1(C(=O)N2CC3(CC(c4cccc([N+](=O)[O-])c4)=NO3)C[C@H]2C(=O)NCC(N)=O)CC1 (stereo not given in full)	18	2.8	1.5%	-6	.	9%	-14%
CC(C(=O)c1ccccc1)[n+]1cccc(C(N)=O)c1 (stereo not given)	1	3.6	.	.	-1%[15.4 µM]	7%	24%
CCOC(=O)c1ccc(NC(=O)COc2ccc(S(=O)(=O)N3CCCC3)cc2)cc1	10	1.7	-1.0%	8	-40%[inhibitor]	-10%	16%
O=C(CN1C(=O)NC2(CCc3ccccc32)C1=O)c1ccc(Br)cc1 (stereo not given)	11	.	.	-7	-14%[15.4 µM]	8%	.
Going on with the list.
SMILES	TRPML1 inh	Menin MLL FP FL	ClpP mod	TRPV1 potentiator	gsp ag	gsp antag	Sfp inh
COc1ccc(CCNC(=O)CCCOc2cc(=O)n(C)c3ccccc23)cc1OC	10	-1.0	.	8	8%[15.4 µM]	4%	15%
O=C1C=C(c2cc3ccccc3s2)C[C@@H](c2ccc(F)cc2)C1	32	.	-0.8%	0	2%	-8%	.
CCN(CC)S(=O)(=O)c1ccc2c(c1)c(=O)c(C(=O)NCc1ccc3c(c1)OCO3)cn2C	.	-0.3	.	0	.	.	13%
CCCn1cc(SCC(=O)Nc2ccc3c(c2)OCO3)c2ccccc21	-7	1.3	1.2%	-4	?	?	10%
CCn1c(SCC(=O)Nc2nc(C)cs2)nnc1C(NC(=O)c1ccccc1Cl)C(C)C (stereo not given)	41	2.5	-3.8%	0	-58%[inhibitor]	4%	10%
Cc1cccc(-n2nnnc2SCc2csc(-c3ccccc3)n2)c1	-1	0.9	-13%	?	-14%	-22%	18%
O=C(NCCc1ccccc1O)c1cc2c(cc1[N+](=O)[O-])OCO2	13	.	-3.2%	.	17%	-4%	.

Retrieved by compound from the entries so far, 2 records:
SMILES	TRPML1 inh	Menin MLL FP FL	ClpP mod	TRPV1 potentiator	gsp ag	gsp antag	Sfp inh
CCOC(=O)c1ccc(CNC(=O)Cn2nnc(-c3ccccc3F)n2)o1	24	-1.0	3.4%	-5	6%[15.4 µM]	5%	26%
COc1ccccc1NC(=O)c1cc(Cl)nc2ccccc12	-9	2.1	.	.	0%[15.4 µM]	-11%	5%
